VACV E9 pol inh – inhibitors of vaccinia virus processive DNA synthesis (E9 polymerase); in vitro processive DNA synthesis, absorbance read-out; active compounds read low; some inactives read as strong as hits; normalized absorbance, % (no concentration beside the values); actives 0.94% (n = 46,000); AID 493162;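 active means replicate mean up to 90% and picked by the depositor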;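 further: 100% = median of the test wells of a plate; 100 nL library stock went into each well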
* = called active by the depositor. Not all compounds are listed; the hit share may differ from the screen's.

SMILES	VACV E9 pol inh
CC(=O)Oc1ccc2c(c1)NC1(OC(C)=O)C(=O)c3ccccc3C21OC(C)=O (stereo unspecified)	93
O=C1/C(=C/c2ccccc2F)Cc2ccccc21	88
CCOC(=O)c1c(SC)nc2ccc(Cl)cc2c1N1CCOCC1	89
COc1cccc(C(=O)Cn2c(=O)n(CCCS(=O)(=O)C3CCCCC3)c(=O)c3ccccc32)c1	105
Cc1nc2ccccc2n1CC(=O)OCc1ccc(Br)cc1	102
CN(Cc1ccccc1)C(=O)CSc1c2c(nc3ccccc13)CCC2	98
CC1CCCCN1S(=O)(=O)Cc1ccccc1 (stereo unspecified)	92
Cc1cc(Br)ccc1NC(=O)CN1CCCCC1	98
CSCCC1NC(=O)NC1=O (stereo unspecified)	104
CC(O)(C#Cc1ccccc1)c1ccc(N2CCCCC2)c(F)c1 (stereo unspecified)	100
CC(C)CCNC(=O)c1cn(-c2ccccc2)nc1-c1cccs1	104
O=c1oc2ccccc2cc1-c1cn2c(n1)sc1ccccc12	100
O=C(O)c1nc(-c2ccccc2)n(-c2cccc(C(F)(F)F)c2)n1	97
N#CC1=C2CCCCC2C(c2ccco2)C(C#N)(C#N)C1=O (stereo unspecified)	99
N#Cc1ccc(C=Nc2ccc(I)cc2)cc1	99
CN1CC=C(c2noc(CCC(=O)Nc3ccc(F)cc3F)n2)CC1	92
O=C(NC1=NCCS1)C(c1ccccc1)c1ccccc1	107
CCOc1ccccc1N(C)S(=O)(=O)c1ccc2c(c1)SC(C)C(=O)N2 (stereo unspecified)	88
N#Cc1nc(COc2ccccc2)oc1NCc1cccnc1	100
Cc1nn(CCCC(=O)NC2CCCC2)c(=O)c2nccn12	100
CN1CCc2c(-c3cccs3)nc(OCc3ccccc3Br)c(C#N)c2C1	46*
O=C(NC(=O)N1CCSC1)c1c(F)cccc1Cl	90
C1=CN(c2ccccc2)C(C=NCc2ccccc2)=CS1	100
CC1(C)CC(=O)C2C(=Nc3ccccc3N=C2c2ccccc2)C1 (stereo unspecified)	100
COc1ccc2c(c1)Sc1ccccc1N2	104
Cn1c(=O)c2ccccc2[s+]1-c1cccc2cccc(C(=O)O)c12 (stereo unspecified)	107
O=C(Cn1ncn2c(cc3ccccc32)c1=O)NCc1ccc(Cl)cc1	103
Fc1ccc(Nc2nc(-c3ccncc3)nc3ccccc23)cc1	103
O=C1CC(CSc2nnnn2-c2ccccc2)=NN1c1nc2ccccc2[nH]1	103
Nc1c(-c2ccccc2)no[n+]1[O-]	107
N#CC1=C(N)C(C#N)(C#N)C(c2ccccc2)C2=C1CCCC2 (stereo unspecified)	95
Nc1sc2c(c1C(=O)O)CCCC2	100
CCN(CC)C(=O)C(c1ccccc1)c1ccccc1	100
CCC(C(=O)O)n1c2ccccc2c2cn[nH]c(=O)c21 (stereo unspecified)	102
Cc1cc(C)nc(NC#N)n1	101
c1ccn2cc(CN3CCCCC3)nc2c1	98
CC(C)N1C(=O)C(=Nc2ccc(C#N)cc2)c2ccccc21	95
O=C(c1cc(-c2ccccc2)on1)N1CCCC1	94
Oc1cc(O)cc(/C=C/c2ccc(O)c(O)c2)c1	98
CCOC(=O)Cn1c(=O)oc2cc(S(=O)(=O)N3CCCC3)ccc21	105
CC(C)(C)c1nc(S(=O)(=O)c2ccccc2)c(NCc2ccccc2)o1	100
CCN(CC)C(=O)c1ccc(N(Cc2ccccc2Cl)S(C)(=O)=O)cc1	96
Cc1cccc(CS(=O)(=O)Cc2ccc(C(=O)NCCCN3CCCC3)o2)c1	102
O=C(Nc1ccccc1-c1nc2ccccc2s1)C1=COCCO1	108
CC(C)(C)c1ccc(/C=C/C(=O)NC2CCS(=O)(=O)C2)cc1 (stereo unspecified)	100
CN(Cc1ccco1)C(=O)CN1C(=O)/C(=C\c2ccc(C(F)(F)F)cc2)Sc2ccccc21	105
CN(C)C(=O)Oc1ccc2nnc3ccnn3c2c1	95
CCCCC/C=C\C/C=C\C/C=C\C/C=C\CCCC(=O)O[C@@H](CO)COCCCCCCCCCCCCCCCC	100
CNCC(O)(c1ccc(Cl)cc1)c1ccc(Cl)cc1	110
Cc1cc(C)c2c(n1)sc1c(Sc3nnc(-c4ccncc4)o3)ncnc12	104
CC1CN(c2ccccc2OC(=O)Nc2ccc(OC(F)(F)F)cc2)CC(C)O1 (stereo unspecified)	101
Cc1ccc(SCc2cc(=O)[nH]c(Nc3nc(C)c4ccccc4n3)n2)cc1	100
CCN1C(=O)/C(=C\C=C\c2ccccc2Cl)SC1=S	100
O=C(Nc1c(C(=O)Nc2ccc(F)cc2)oc2ccccc12)c1ccccc1	104
CC(C)CCn1c(O)c(N=O)c2ccccc21	99
CN(C)C(=O)CSc1nc(N)cc(=O)[nH]1	122
CC1=NN(c2nc3ccccc3nc2Cl)C(=O)C1	102
O=C(COc1ccccc1F)NCc1nc2ccccc2[nH]1	105
COc1ccc(C=C2C(=O)OC3(CCCCC3)OC2=O)cc1OC	100
CCN(CC)C(=O)[n+]1ccc(OC)cc1	100
Additional compounds follow.
SMILES	VACV E9 pol inh
O=C(Nc1cccc(Cl)c1)c1cc(O)cc(O)c1	101
CCSc1nc2c(c(=O)n1-c1ccccc1OC)SCC2	100
CC(NC(=O)CC1Sc2ccccc2NC1=O)c1ccccc1 (stereo unspecified)	72
CC(C)CSc1ncnc2scc(-c3ccccc3)c12	100
OC(CC#CCN1CCCC1)(c1ccccc1)C1CCCC1 (stereo unspecified)	105
Cc1nn(C(C)(C)C)c(OC(=O)c2ccccc2)c1Sc1ccccc1	88
CC(CC(=O)C1C(C)C=CCC1(C)C)Nc1ccccc1 (stereo unspecified)	99
CC1(c2ccccc2)CC(C)(C)N(C(=O)C(F)(F)F)c2ccccc21 (stereo unspecified)	100
COc1ccc(C2C(C(=O)NC3CCCCC3)c3ccccc3C(=O)N2c2ccc(OC)cc2)cc1 (stereo unspecified)	107
O=C(CSC1=NCCN1)NC(c1ccccc1)c1ccccc1	90
CCOc1csc2nc(C)cc(C)c12	110
CC(=O)Oc1ccccc1OC(C)c1nn(C(C)=O)c2ccccc12 (stereo unspecified)	100
C[C@@H]1CC2C3C[C@H](F)C4=CC(=O)C=C[C@]4(C)[C@@]3(F)[C@@H](O)C[C@]2(C)[C@@]1(O)C(=O)CO (stereo partly specified)	100
O=C(COc1ccc2ccccc2c1)Oc1ccc(C(=O)c2ccccc2)cc1	100
O=C(N1CCCCC1)N1c2ccccc2Sc2ccccc21	98
CCCc1nnc(N(Cc2ccc(Cl)cc2)C(=O)c2ccc(C)cc2)s1	99
O=C(CC(CC(=O)c1ccc(Br)cc1)c1cccnc1)c1ccc(Br)cc1	96
O=c1[nH]nc(-c2ccccc2)c2ccccc12	100
Fc1ccc(Cc2nn[nH]n2)c(Cl)c1	104
c1ccc(C(c2ccccc2)N2CCC2)cc1	83
CC(C)(C)OC(=O)Nc1ncnc2c1ncn2C1OC(CO)C2OC(C)(C)OC21 (stereo unspecified)	98
Cc1cc(C)n(-c2ccc(C(=O)O)cc2)n1	99
CCCN1C(=S)NC2c3ccccc3OC1(C)C2C (stereo unspecified)	99
CC/C(O)=C1/C(=O)CC(C)(C)CC1=Nc1cccc2ccccc12	105
CC(C)c1nnc(NC(=O)c2ccc(-c3ccccc3)cc2)s1	94
O=C(NCc1ccccc1)Nc1ccccc1	96
COc1ccc2nc(NC(=O)CCCCl)sc2c1	100
CCOC(=O)c1cn(CC(=O)NN)nc1C(F)(F)F	86
CCC(=O)Nc1ccc(S(=O)(=O)NC(C)(C)C)cc1	114
C(=C\c1ccccc1)/CSc1nc2ccccc2[nH]1	99
O=C(O)c1ccccc1-c1ccc(/C=N/N2C(=O)C3C4C=CC(C4)C3C2=O)o1 (stereo unspecified)	100
O=C(CSc1nnc2sc3ccccc3n12)N1CCc2ccccc2C1	100
COc1cccc(NC(=O)c2cc(=O)c3ccccc3o2)c1	100
CSc1cccc(NC(=O)C2CCN(S(=O)(=O)c3c(C)n[nH]c3C)CC2)c1	100
O=C(O)c1ccc2cc[nH]c2c1	99
Nc1nc2ccc(S(N)(=O)=O)cc2s1	100
CC1=C(C#N)C(c2ccc(Cl)cc2)C(C(=O)Nc2ccccc2)=C(C)N1 (stereo unspecified)	101
O=C(O)C1CCCc2c1[nH]c1ccc(Cl)cc21 (stereo unspecified)	89
COc1cccc(Nc2nc(O)c(C3=c4ccccc4=NC3=O)s2)c1	100
CCOc1ccc(C2C=C(N)Oc3nc(COC)[nH]c32)cc1OC (stereo unspecified)	100
Cc1nc(-c2ccc(Cl)cc2)cc(C(F)(F)F)c1C#N	91
CSc1ccc(C=Nc2ccc(C)c(C)c2)cc1	100
NC(=O)C(Cc1ccccc1)NC(=O)C12CC3CC(CC(C3)C1)C2 (stereo unspecified)	73
CC(NC(=O)c1ccc(C(=O)NC(C)c2ccccc2)s1)c1ccccc1 (stereo unspecified)	99
O=C(NCc1ccc(-c2cccs2)cc1)C1=Cc2ccccc2OC1	99

20 entries out of the list, arranged by molecular weight, smallest number first.
SMILES	VACV E9 pol inh
CCN(CC)C(=O)[n+]1ccc(OC)cc1	100
Fc1ccc(Cc2nn[nH]n2)c(Cl)c1	104
Nc1nc2ccc(S(N)(=O)=O)cc2s1	100
O=C(c1cc(-c2ccccc2)on1)N1CCCC1	94
O=C(O)C1CCCc2c1[nH]c1ccc(Cl)cc21 (stereo unspecified)	89
CC1CCCCN1S(=O)(=O)Cc1ccccc1 (stereo unspecified)	92
CN(C)C(=O)Oc1ccc2nnc3ccnn3c2c1	95
CCC(C(=O)O)n1c2ccccc2c2cn[nH]c(=O)c21 (stereo unspecified)	102
CCCN1C(=S)NC2c3ccccc3OC1(C)C2C (stereo unspecified)	99
CC(C)N1C(=O)C(=Nc2ccc(C#N)cc2)c2ccccc21	95
Cc1nc(-c2ccc(Cl)cc2)cc(C(F)(F)F)c1C#N	91
Cc1nn(CCCC(=O)NC2CCCC2)c(=O)c2nccn12	100
N#Cc1nc(COc2ccccc2)oc1NCc1cccnc1	100
CC/C(O)=C1/C(=O)CC(C)(C)CC1=Nc1cccc2ccccc12	105
CCOc1ccc(C2C=C(N)Oc3nc(COC)[nH]c32)cc1OC (stereo unspecified)	100
COc1ccc(C=C2C(=O)OC3(CCCCC3)OC2=O)cc1OC	100
O=C(O)c1nc(-c2ccccc2)n(-c2cccc(C(F)(F)F)c2)n1	97
CN1CC=C(c2noc(CCC(=O)Nc3ccc(F)cc3F)n2)CC1	92
CN(Cc1ccccc1)C(=O)CSc1c2c(nc3ccccc13)CCC2	98
O=C(COc1ccc2ccccc2c1)Oc1ccc(C(=O)c2ccccc2)cc1	100

(next part)
SMILES	VACV E9 pol inh
COc1ccc(C2C3=C(CCCC3=O)Nc3n[nH]c(-c4ccc(Cl)cc4)c32)cc1OC (stereo unspecified)	105
CCOc1ccc(C(=O)NC(C)c2ccccc2)cc1 (stereo unspecified)	102
COc1cccc(/C(O)=C2\C(=O)C(=O)N(c3ccccn3)C2c2ccccc2)c1 (stereo unspecified)	94
O=C(/C=C/c1ccccc1)Oc1ccc2ccccc2c1	99
CC1C/C(=C/c2ccco2)C(=O)/C(=C/c2ccco2)C1 (stereo unspecified)	81
COc1ccc(/C=C/C(O)=C2/C(=O)N(C)C34CCCC3C2c2ccccc2O4)cc1 (stereo unspecified)	100
O=c1oc2ccccc2cc1-c1nc(-c2ccccc2)cs1	99
O=C(OCc1cncs1)c1ccccc1	87
CCOC(=O)C1=NN(c2ccccc2)CC1C(=O)OC (stereo unspecified)	100
CC(CO)(CO)NC(=S)Nc1ccc(F)c(Cl)c1	102
O=C(Nc1ccccc1)N1c2ccccc2CCc2ccccc21	97
Brc1cccc(-c2nnco2)c1	108
NCCN1C(=O)S/C(=C/c2cccs2)C1=O	100
CN1C(C(=O)NCC2CCCO2)=CC(c2cccs2)=NS1(=O)=O (stereo unspecified)	92
CC12CC(c3ccccc3O1)N(C(=O)c1ccccc1)C(=O)N2c1ccccc1 (stereo unspecified)	104
c1nc(NCC2CCCO2)c2[nH]cnc2n1 (stereo unspecified)	101
CCC(=O)NCCn1c(C)cc2ccccc21	100
O=C(CC(=O)NC1CCCCC1)NC1CCCCC1	103
COc1cc(C2C(C#N)=C(C)Nc3oc(C)nc32)ccc1OCCN1CCOCC1 (stereo unspecified)	100
Cc1ccccc1OCC(=O)NC1CCCCC1	100
O=C(CCN1CCOCC1)N1c2ccccc2Sc2ccc(Cl)cc21	99
Cc1nn(CCCC(=O)NCCc2ccccc2)c(=O)c2nccn12	114
Cc1ccc(S(=O)(=O)NC(C)C(=O)Oc2cc3oc(=O)c(Cl)c(C)c3cc2Cl)cc1 (stereo unspecified)	93
Nc1nc(COc2ccccc2)cs1	104
c1ccc(Cc2nc3ccc4[nH]snc4c3n2)cc1	100
Cc1cccc(-n2cnc3cc(C(=O)NCCC4=CCCCC4)ccc32)c1	98
COc1cc(C(=O)O)ccc1OCc1ccccc1	99
CCOc1ccc2c(c1)C(=O)c1cc(OCC)ccc1-2	100
OC1CCCCC1c1ccccn1 (stereo unspecified)	100
O=C(C1Cc2ccccc2CN1S(=O)(=O)c1cccs1)N1CCCCCC1 (stereo unspecified)	101
O=C(C1CCC1)N1CCc2cc(S(=O)(=O)NCCN3CCCC3)ccc21	104
CC(C)(C)C1=C(C#N)C(c2ccc(Cl)cc2)CC(=O)N1 (stereo unspecified)	92
COc1ccc(C2=Nn3c(nc4sc5c(c4c3=O)CCCC5)SC2)cc1	106
CC(C)CCNc1ncnc2c1nc1n2CCCCC1	107
COc1ccc(C(c2ccc3cccnc3c2O)N2CCOCC2)cc1 (stereo unspecified)	117
CN1C2=C(C(=O)CCC2)C(c2ccccc2)C2=C1CCCC2=O	98
O=C1Nc2ccccc2S/C1=C\c1cccc(Cl)c1	104
N#Cc1cn(C2CC2)c(=O)n(Cc2ccccc2)c1=O	103
Cc1ccc2c(c1)C(c1ccccc1)N(C(=O)C(C)C)CC(=O)N2 (stereo unspecified)	110
COCCn1c(=NC(=O)c2ccc(C(=O)OC)cc2)sc2cc(C)ccc21	109
Cc1ccc2nc(SCc3ccccc3)[nH]c2c1	67

High-throughput results (PubChem BioAssay)
